PV pol inh: poliovirus RdRp elongation inhibitors, primary screen, biochemical, fluorescence polarization, total intensity; 150,000 tested, 0.66% active; AID 588519, 2011; % elongation, % (compound at 16.7 µg/mL); poliovirus polymerase elongation; stronger effect = lower value; in the data active means % elongation below about 90%; further: some results filed as inactive read as strong as hits
MenB inh: M. tuberculosis MenB inhibitors, primary screen, biochemical, absorbance; MenB enzyme assay, absorbance read-out; some hits fall short of the stated cut; AID 540299, 2011; inhibition, %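 (about 12 µg/mL by stock and volumes)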; 100,000 tested, 0.43% active;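 active means mean of two replicates above 30%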;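 further: 0% = no compound and 100% = wells with inactive enzyme; the first replicate is given; strong numbers were not always called active; inactives centre near -10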
Target sequence (P9WNP5 whole entry, looked up): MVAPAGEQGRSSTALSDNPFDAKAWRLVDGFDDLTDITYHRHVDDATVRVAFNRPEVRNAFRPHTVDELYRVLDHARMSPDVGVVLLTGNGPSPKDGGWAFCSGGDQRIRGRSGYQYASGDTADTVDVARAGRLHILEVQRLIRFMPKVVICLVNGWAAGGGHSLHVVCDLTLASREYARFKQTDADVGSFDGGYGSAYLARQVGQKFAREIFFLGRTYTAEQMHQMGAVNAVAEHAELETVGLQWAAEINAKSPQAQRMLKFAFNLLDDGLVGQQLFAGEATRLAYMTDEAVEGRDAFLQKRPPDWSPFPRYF
Mtb MbtI inh: MbtI salicylate synthase inhibitors, primary screen, biochemical, fluorescence intensity; inhibition, %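 (about 17 µg/mL by stock and volumes)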; 100,000 tested, 0.89% active; P9WFX0; purified MbtI enzyme, fluorescence intensity read-out; AID 493033, 2011;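 active means above 50% in both replicates, above 80% if mildly self-fluorescent; inactive means the rest, strongly fluorescent compounds included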;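 further: 0% = mean of negative and 100% = mean of positive controls; one replicate is shown; some compounds called inactive have numbers as strong as hits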
Target sequence (P9WFX0 whole entry, looked up): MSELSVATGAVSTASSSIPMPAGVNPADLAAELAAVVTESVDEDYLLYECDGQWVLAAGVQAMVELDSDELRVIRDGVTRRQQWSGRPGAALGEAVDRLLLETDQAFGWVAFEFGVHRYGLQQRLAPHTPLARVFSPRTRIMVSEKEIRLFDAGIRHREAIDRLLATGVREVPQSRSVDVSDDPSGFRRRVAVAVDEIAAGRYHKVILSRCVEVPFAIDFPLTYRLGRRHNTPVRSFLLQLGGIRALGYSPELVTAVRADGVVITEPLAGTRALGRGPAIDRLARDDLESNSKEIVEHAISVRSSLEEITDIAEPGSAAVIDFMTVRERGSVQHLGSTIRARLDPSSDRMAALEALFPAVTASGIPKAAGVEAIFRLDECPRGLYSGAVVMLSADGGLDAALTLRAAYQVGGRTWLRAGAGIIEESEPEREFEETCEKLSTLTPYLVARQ
PV pol inh intensity: also measured in PV pol inh; calls as there; % elongation; measured here: total intensity read-out; formula for this scale not given here;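 total fluorescence in place of polarization; lower means less elongation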
Active calls of the source: *.

Cn1c(=O)cc(OCCCC(=O)N2CCCCCC2)c2ccccc21 was read as PV pol inh 102.0, MenB inh -19.1, Mtb MbtI inh 5.1 and PV pol inh intensity 95.0.
For Cc1nnc(Nc2ccccc2)n(N)c1=O the results were PV pol inh 106.0, MenB inh -19.7, Mtb MbtI inh 2.0 and PV pol inh intensity 106.0.
CCC(C#CCN1CCCCC1)(CC)OC(C)=O was read as PV pol inh 104.0, MenB inh -0.6, Mtb MbtI inh -4.0 and PV pol inh intensity 102.0.
CC(C)CN1C(=O)c2ccc(C(=O)NC3CCCCC3)cc2C1=O was read as PV pol inh 100.0, MenB inh -12.3, Mtb MbtI inh 1.0 and PV pol inh intensity 100.0.
CCOc1cc(C)[nH]n1 was read as PV pol inh 99.0, MenB inh -11.1, Mtb MbtI inh 2.8 and PV pol inh intensity 99.0.
`COc1ccc(N2CC(NC(=O)NCCn3c(C)cc4ccccc43)CC2=O)cc1OC` (stereo not drawn) gave PV pol inh 102.0, MenB inh -12.3, Mtb MbtI inh 14.1 and PV pol inh intensity 104.0.
Screening Cn1cc(NC(=O)Nc2ccc(C(F)(F)F)cc2)c(C(F)(F)F)n1 returned PV pol inh 101.0, MenB inh -3.3, Mtb MbtI inh 0.6 and PV pol inh intensity 107.0.
Screening C/C(N)=C\C(=O)Nc1ccccc1 returned PV pol inh 101.0, MenB inh -36.5, Mtb MbtI inh -18.5 and PV pol inh intensity 103.0.
Screening NC(=O)c1ccsc1NC(=O)CSc1ccccc1 returned PV pol inh 106.0, MenB inh -29.8, Mtb MbtI inh 2.6 and PV pol inh intensity 109.0.
O=C(CNCC1CCCO1)Nc1ccccc1-n1cccc1 (stereo not drawn) was read as PV pol inh 102.0, MenB inh -48.9, Mtb MbtI inh -4.7 and PV pol inh intensity 100.0.
`CCOC(=O)c1cnc2cc(C)[nH]n2c1=O` gave PV pol inh 101.0, MenB inh 3.6, Mtb MbtI inh 35.5 and PV pol inh intensity 103.0.
COc1ccccc1CC1(C)NC(=O)N(CC(=O)c2cc(C)n(Cc3ccco3)c2C)C1=O (stereo not drawn) was read as PV pol inh 112.0, MenB inh -13.2, Mtb MbtI inh -10.1 and PV pol inh intensity 113.0.
Screening COC(=O)c1ccc(COc2ncnc3ccccc23)o1 returned PV pol inh 108.0, MenB inh -9.8, Mtb MbtI inh -3.9 and PV pol inh intensity 118.0.
`COc1ccc(C2=NOC(C(=O)NCc3ccccc3)C2)cc1` (stereo not drawn) gave PV pol inh 96.0, MenB inh 8.6, Mtb MbtI inh -1.2 and PV pol inh intensity 103.0.
Screening COc1cc(OC)c(NC(=O)Nc2nnc(N3CCCC3)s2)cc1Cl returned PV pol inh 100.0, MenB inh 11.5, Mtb MbtI inh -1.8 and PV pol inh intensity 104.0.
For COc1ccc(NCn2c3ccccc3c3ccccc32)cc1 the results were PV pol inh 98.0, MenB inh -27.5 and PV pol inh intensity 106.0.
For CCc1ccnc(NC(=O)Nc2ccccc2C(C)(C)C)c1 the results were PV pol inh 109.0, MenB inh -10.2, Mtb MbtI inh -16.4 and PV pol inh intensity 112.0.
For CCOC(=O)c1c(NC(=O)CSc2nnc(-c3ccccc3)o2)sc2c1CCCC2 the results were PV pol inh 100.0, MenB inh -21.0, Mtb MbtI inh -7.8 and PV pol inh intensity 102.0.
`CC1CCCN(C(=O)COC(=O)C2=NN(c3ccccc3)C(=O)CC2)C1` (stereo not drawn) gave PV pol inh 99.0, MenB inh -1.2, Mtb MbtI inh 1.6 and PV pol inh intensity 103.0.
`Cn1c(SCC(N)=O)nnc1-c1ccc(S(=O)(=O)N2CCCC2)cc1` gave PV pol inh 103.0, MenB inh 0.0, Mtb MbtI inh 7.9 and PV pol inh intensity 102.0.
`CCn1c(O)c(C=Nc2cccc3c2C(=O)NC3=O)c(=O)n(CC)c1=S` gave PV pol inh 103.0, MenB inh -15.0, Mtb MbtI inh 3.2 and PV pol inh intensity 106.0.
O=C(Cc1n[nH]c(=O)c2ccccc12)Nc1ccc2c(c1)OCCO2 was read as PV pol inh 108.0, MenB inh 20.7, Mtb MbtI inh 10.4 and PV pol inh intensity 101.0.
CCC(C)NC(=S)N(C)N (stereo not drawn) was read as PV pol inh 107.0, MenB inh 7.3, Mtb MbtI inh 4.4 and PV pol inh intensity 101.0.
O=C(NCCCN1CCCC1)c1ccc(CS(=O)Cc2ccccc2Cl)o1 (stereo not drawn) was read as PV pol inh 100.0, MenB inh -3.8, Mtb MbtI inh -18.9 and PV pol inh intensity 103.0.
Screening CN(C)P1(N(C)C)=Nc2c(c(N)nn2C)C(c2ccccc2)=N1 returned PV pol inh 101.0, MenB inh -14.1, Mtb MbtI inh 10.0 and PV pol inh intensity 103.0.
For O=C(NCCCN1CCCCC1)c1ccc(-n2c(-c3ccccc3)cc3c2CCCC3)cc1 the results were PV pol inh 99.0, MenB inh 3.4, Mtb MbtI inh 8.7 and PV pol inh intensity 102.0.
For CC(C)NC(=O)c1ncoc1-c1cccs1 the results were PV pol inh 100.0, MenB inh -18.9, Mtb MbtI inh 97.6 and PV pol inh intensity 102.0.
`O=c1oc2ccccc2n1CNc1ccccn1` gave PV pol inh 96.0, MenB inh 17.8, Mtb MbtI inh 2.4 and PV pol inh intensity 100.0.
Cc1c(Cl)cccc1NC(=S)N(Cc1ccco1)C1CCN(C(C)C)CC1 was read as PV pol inh 102.0, MenB inh -2.1, Mtb MbtI inh -2.8 and PV pol inh intensity 96.0.
Screening Cc1ccccc1NC(=O)Nc1sc(NS(=O)(=O)c2ccccc2)nc1C returned PV pol inh 98.0, MenB inh -3.6, Mtb MbtI inh 4.3 and PV pol inh intensity 99.0.
`O=C(Nc1cc(Cl)cc(Cl)c1)C1CCCC1` gave PV pol inh 101.0, MenB inh -18.1, Mtb MbtI inh -12.4 and PV pol inh intensity 103.0.
`O=c1cccc(-c2ccc(O)cc2)o1` gave PV pol inh 100.0, MenB inh -46.4, Mtb MbtI inh 15.6 and PV pol inh intensity 100.0.
`CCC(C)S(=O)(=O)c1oc(-c2ccc(F)cc2)nc1S(=O)(=O)c1ccc(C)cc1` (stereo not drawn) gave PV pol inh 103.0, MenB inh -2.9, Mtb MbtI inh 8.4 and PV pol inh intensity 103.0.
Cc1ncoc1C(=O)Nc1ccc(C(C)C)cc1 was read as PV pol inh 100.0, MenB inh -7.8, Mtb MbtI inh 5.0 and PV pol inh intensity 101.0.
Screening CC1CCCC(NC(=O)COC(=O)c2ccc(O)cc2)C1C (stereo not drawn) returned PV pol inh 102.0, Mtb MbtI inh -2.4 and PV pol inh intensity 94.0.
Screening COC(=O)c1cc(SC#N)ccc1N returned PV pol inh 99.0, MenB inh 12.1, Mtb MbtI inh 33.5 and PV pol inh intensity 101.0.
`CN(C)S(=O)(=O)Nc1cccc(-c2cn3c(n2)SCC3)c1` gave PV pol inh 107.0, MenB inh -18.6, Mtb MbtI inh 12.8 and PV pol inh intensity 106.0.
Screening COC(=O)NC1C2CC3CC(C2)CC1C3 (stereo not drawn) returned PV pol inh 101.0, MenB inh 10.1, Mtb MbtI inh -3.4 and PV pol inh intensity 102.0.
CCCn1c(CCC(=O)N2CCc3ccccc3C2)nc2cccnc21 was read as PV pol inh 100.0, MenB inh -10.8, Mtb MbtI inh 0.0 and PV pol inh intensity 106.0.
`Cn1c(=O)n(C)c2cc(NC(=O)C(F)(F)F)ccc21` gave PV pol inh 101.0, MenB inh -8.6, Mtb MbtI inh -14.6 and PV pol inh intensity 100.0.
For CCCCN1C(=O)C(NC(=O)c2cccnc2)(C(F)(F)F)C2=C1CC(C)(C)CC2=O (stereo not drawn) the results were PV pol inh 101.0, MenB inh -13.1, Mtb MbtI inh -2.1 and PV pol inh intensity 100.0.
For Cc1ccc(/C=C(\C#N)C(=O)C(C)(C)C)o1 the results were PV pol inh 118.0, MenB inh -189.7, Mtb MbtI inh -3.2 and PV pol inh intensity 122.0.
For COc1ccc(Cl)c2sc(N3CCN(C(=O)c4ccco4)CC3)nc12 the results were PV pol inh 102.0, MenB inh -5.6, Mtb MbtI inh 3.9 and PV pol inh intensity 101.0.
`CN1/C(=C\C=C2C(=O)NC(=O)NC2=O)C(C)(C)c2ccccc21` gave PV pol inh 78.0, MenB inh -194.8, Mtb MbtI inh -5.8 and PV pol inh intensity 200.0.
Screening COCCOc1cc(C)nc(N2CCOCC2)n1 returned PV pol inh 100.0, MenB inh 17.0, Mtb MbtI inh -3.8 and PV pol inh intensity 102.0.

Looked up by structure from the entries so far:
Cc1ncoc1C(=O)Nc1ccc(C(C)C)cc1 was read as PV pol inh 100.0, MenB inh -7.8, Mtb MbtI inh 5.0 and PV pol inh intensity 101.0.
`CN(C)S(=O)(=O)Nc1cccc(-c2cn3c(n2)SCC3)c1` gave PV pol inh 107.0, MenB inh -18.6, Mtb MbtI inh 12.8 and PV pol inh intensity 106.0.
`O=C(Nc1cc(Cl)cc(Cl)c1)C1CCCC1` gave PV pol inh 101.0, MenB inh -18.1, Mtb MbtI inh -12.4 and PV pol inh intensity 103.0.
Screening COC(=O)NC1C2CC3CC(C2)CC1C3 (stereo not drawn) returned PV pol inh 101.0, MenB inh 10.1, Mtb MbtI inh -3.4 and PV pol inh intensity 102.0.

(further entries)
`CC1CC(C)CN(C(=O)c2ccc3c(c2)NC(=O)CN3)C1` (stereo not drawn) gave PV pol inh 102.0, MenB inh -14.8, Mtb MbtI inh 116.4 and PV pol inh intensity 105.0.
`COc1ccc(OC)c2c1CC(C)(C)n1c(-c3ccc(Cl)cc3)nnc1-2` gave PV pol inh 101.0, MenB inh -8.1, Mtb MbtI inh -8.0 and PV pol inh intensity 105.0.
Screening CN(C)c1ccc(CNC(=O)CC(c2cccs2)n2cccc2)cc1 (stereo not drawn) returned PV pol inh 103.0, MenB inh -11.5, Mtb MbtI inh -23.6 and PV pol inh intensity 103.0.
For CCN1CNC(=S)N(C2CCCCC2)C1 the results were PV pol inh 100.0, MenB inh -29.1, Mtb MbtI inh -226.4 and PV pol inh intensity 105.0.
`CCc1nc2ccccc2c(C(=O)O)c1C` gave PV pol inh 101.0, Mtb MbtI inh 1.7 and PV pol inh intensity 102.0.
`Cc1cc2n(c(=O)c1C(N)=O)CCO2` gave PV pol inh 100.0, MenB inh -2.4 and PV pol inh intensity 101.0.
CN(C(=O)CSc1nc2c(c(=O)[nH]1)CCC2)c1ccccc1 was read as PV pol inh 101.0, MenB inh -6.5, Mtb MbtI inh 33.7 and PV pol inh intensity 99.0.
For COCC(=O)N1CCN(c2ncnc3c(-c4ccc(Cl)cc4)nsc23)CC1 the results were PV pol inh 102.0, MenB inh 18.8, Mtb MbtI inh -10.9 and PV pol inh intensity 102.0.
Screening CC(C)(C)C(=O)/C=C1\NCCN\C1=C/C(=O)C(C)(C)C returned PV pol inh 106.0, MenB inh -16.4 and PV pol inh intensity 107.0.
Cc1ccc(S(=O)(=O)c2nc(-c3ccccc3)oc2S(=O)(=O)c2ccc(C)cc2)cc1 was read as PV pol inh 103.0, MenB inh -14.8, Mtb MbtI inh 12.4 and PV pol inh intensity 99.0.
`C[C@]12CCC(=O)C=C1C=C[C@@H]1[C@@H]2CC[C@@]2(C)[C@H]1CC[C@@]2(O)CCC(=O)O` gave PV pol inh 101.0, MenB inh -3.9, Mtb MbtI inh 0.2 and PV pol inh intensity 102.0.
Screening O=C(CNC(=O)c1ccc(-n2cnnc2)cc1)Nc1ccc(N2CCCCC2)cc1 returned PV pol inh 106.0, MenB inh -14.2, Mtb MbtI inh -26.0 and PV pol inh intensity 107.0.
Screening CCc1ccc(OCC(=O)Nc2ccc(OC)cc2)cc1 returned PV pol inh 102.0, MenB inh -15.2, Mtb MbtI inh 14.7 and PV pol inh intensity 106.0.
Screening Cc1ccc(C)n1-c1ccsc1C(=O)O returned PV pol inh 48.0*, MenB inh -12.4, Mtb MbtI inh -22.3 and PV pol inh intensity 49.0*.
For CC(C)(C)n1ncc2c(=O)n(NC(=O)/C=C/c3ccccc3)cnc21 the results were PV pol inh 105.0, MenB inh -21.9, Mtb MbtI inh -5.8 and PV pol inh intensity 100.0.
CCc1nc(SCC(=O)N2c3ccccc3Sc3ccccc32)n[nH]1 was read as PV pol inh 101.0, MenB inh -15.6, Mtb MbtI inh 4.2 and PV pol inh intensity 102.0.
`CCOC(=O)c1nnn2c1nc(Sc1nc3ccccc3o1)c1ccccc12` gave PV pol inh 102.0, MenB inh 4.2, Mtb MbtI inh 13.6 and PV pol inh intensity 103.0.
Screening COc1cc(C2CC(=O)N3CN(Cc4ccccc4)CSC3=C2C#N)cc(Br)c1O (stereo not drawn) returned PV pol inh 101.0, MenB inh -12.8, Mtb MbtI inh 53.0 and PV pol inh intensity 101.0.
CN1CCC2=C1/C(=N\OC(=O)c1ccccc1)SC2=Nc1ccccc1 was read as PV pol inh 99.0, MenB inh -46.8, Mtb MbtI inh -4.9 and PV pol inh intensity 95.0.
Oc1oc(-c2ccccc2)nc1C=Nc1ccc2ccccc2c1 was read as PV pol inh 100.0, MenB inh -23.3, Mtb MbtI inh 12.1 and PV pol inh intensity 104.0.
CCOC(=O)c1cc(S(=O)(=O)N(CC)c2ccccc2)cn1C was read as PV pol inh 104.0, MenB inh 6.4, Mtb MbtI inh -6.3 and PV pol inh intensity 101.0.
Screening O=C(NC1=NCCS1)c1cc2c(s1)CCCCCC2 returned PV pol inh 101.0, MenB inh -0.9, Mtb MbtI inh -2.2 and PV pol inh intensity 106.0.
Screening CCCCn1c(=O)[nH]c(=O)c2c1nc(COC(=O)c1ccccc1)n2CCC(C)C returned PV pol inh 107.0, MenB inh -23.6, Mtb MbtI inh -3.4 and PV pol inh intensity 114.0.

Screens from PubChem.
